High-throughput results deposited in PubChem by several laboratories.
Calb FLC – C. albicans growth inhibition with fluconazole, primary screen, CaCi-2 strain, Alamar Blue fluorescence | 300,000 tested, 0.57% active | growth inhibition, % (no concentration beside the values) | C. albicans CaCi-2 (fluconazole-resistant clinical isolate) + fluconazole, 48 h;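 active = most replicates above 75%; inconclusive = exactly half above 75%; inactive = most below 75%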;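 note: all wells also contain fluconazole at 8 µg/ml as a sub-toxic cotreatment; 0% = median of DMSO wells and 100% = median of geldanamycin control wells; wells of about 8 µL received 7.5 nL stock; the first replicate is given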
T cruzi inh – inhibitors of intracellular T. cruzi growth, primary screen, luminescence, NIH3T3 host cells; T. cruzi beta-gal in NIH3T3, 90 h; 300,000 tested, 1.4% active; inhibition, % (no concentration beside the values);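 active = mean inhibition across valid replicates above about 55%, limit read from the data; inconclusive = mean below that limit but half or more replicates reach it; inactive = mean below it, under half of replicates reach it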;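 note: signal also drops with host cell toxicity which is not excluded here; 0% = plate median of DMSO wells and 100% = zero luminescence signal; higher percent means less beta-gal luminescence so fewer parasites; stock transfer was 50 nL into about 50 µL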
RanGTP-Impb inh – inhibitors of RanGTP-importin-beta interaction, primary screen, biochemical, FRET, CFP-Ran, YFP-importin-beta, homogeneous; Ran GTPase (GTP-bound) - importin-beta complex; cell-free CFP-Ran/YFP-importin-beta FRET ratio; inhibition, % (no concentration beside the values); 300,000 tested, 1.1% active;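 active = most replicates above 15%; inconclusive = exactly half above 15%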;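 note: 0% = DMSO wells and 100% = Ran loaded with GDP instead of GTP; wells of about 40 µL received 100 nL stock; the first replicate is given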
Beta apoptosis – inhibitors of cytokine-induced beta cell apoptosis, primary screen, luminescence; INS-1E cytokine-induced death, ATP luminescence, 48 h; percent of positive-control rescue, neutral wells zero; protection from apoptosis, % (no concentration beside the values); 300,000 tested, 0.8% active;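 active = all replicates at 75% or more, or half of them and the mean; inconclusive = half reach 75% but not the mean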;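 note: 0% = cytokine-treated negative control wells and 100% = positive control rescue; higher means more ATP so stronger rescue from cytokine killing; wells of about 40 µL received 100 nL stock; the first replicate is given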
Vif TR-FRET – inhibitors of Vif binding to APOBEC3G peptide, primary screen, biochemical, TR-FRET, GST-Vif 1-94, biotin-A3G peptide, dose response retest (AID 1117319); one-dose inhibition, %; IC50 in µM for titrated hits; TR-FRET GST-Vif / biotin-A3G peptide binding; higher % means a stronger effect; test concentration not given here; strong numbers were not always called active; 260,000 tested, 0.57% active;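 active = above the screen mean plus three standard deviations and confirmed in dose response; inconclusive = results disagree or hit not tested in dose response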;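 note: Vif residues 1-94 fused to GST binding biotinylated APOBEC3G peptide 110-148; 0% = full assay without inhibitor and 100% = GST in place of GST-Vif; retest series ran down from 100 µM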
AF4-AF9 inh – inhibitors of AF4 peptide binding to AF9, primary screen, biochemical, AlphaScreen, biotin-AF4 peptide, FLAG-AF9, single point. Protein AF-9 (Homo sapiens), P42568. 350,000 tested, 0.47% active. inhibition, % at 10 µM;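 active = every replicate reaching a set inhibition limit, whatever the replicate mean, cut at about 25% in these data; inconclusive = mean inhibition reaches that limit but some replicates miss it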;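 note: 0% = plate neutral control median and 100% = total signal loss; the record names both 10 and 1 µM as test concentration; the first replicate is given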
Target sequence (P42568 whole entry, looked up): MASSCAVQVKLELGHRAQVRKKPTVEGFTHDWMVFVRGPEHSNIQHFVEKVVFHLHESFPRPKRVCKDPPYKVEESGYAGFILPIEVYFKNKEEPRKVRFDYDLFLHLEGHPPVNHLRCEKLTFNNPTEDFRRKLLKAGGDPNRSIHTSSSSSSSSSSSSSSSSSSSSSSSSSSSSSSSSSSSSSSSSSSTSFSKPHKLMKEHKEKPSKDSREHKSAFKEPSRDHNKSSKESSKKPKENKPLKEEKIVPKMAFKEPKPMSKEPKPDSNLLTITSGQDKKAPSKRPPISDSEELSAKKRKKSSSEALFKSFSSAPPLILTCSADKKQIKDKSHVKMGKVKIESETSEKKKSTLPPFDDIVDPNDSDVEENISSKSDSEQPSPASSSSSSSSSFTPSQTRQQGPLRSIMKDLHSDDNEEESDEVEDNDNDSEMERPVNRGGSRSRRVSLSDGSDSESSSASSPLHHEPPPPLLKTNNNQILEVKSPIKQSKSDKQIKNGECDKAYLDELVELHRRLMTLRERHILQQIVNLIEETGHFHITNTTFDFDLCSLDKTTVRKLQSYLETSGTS
Bfl-1 A1 inh – caspase 3/7 activation in MEF A1-2A-BIM cells, primary screen, A1 inhibitor project, cell-based, luminescence, HTS. Caspase-Glo 3/7 luminescence, 3 h; percent of clofoctol response, vehicle zero. caspase activation, % (no concentration beside the values). 330,000 tested, 0.066% active. AID 2462, 2010;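 active = over half of replicate activation scores above 10%, or exactly half above 10 with the replicate mean above 10; inconclusive = replicate mean below 10 yet half the replicates above 10; inactive = over half of replicates below 10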;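 note: wells of about 30 µL received 50 nL stock; many hits fall short of the cut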
Ecoli rRNA inh – reduced GFP signal of wild-type E. coli, primary screen, bacterial rRNA inhibitor project, GFP/RFP fluorescence, OD600, single point | AID 720706, 2013 | 350,000 tested, 1.6% active | E. coli WT GFP vs humanized-ribosome RFP mutants, 24 h; stronger effect = lower value; DMSO median 0, no signal -100 | GFP signal change (wild-type ribosome), % (no concentration beside the values);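 active = significant combined selectivity score with lowered wild-type GFP, culture density cut under 30%, mutant RFP and density less affected; inactive = any of these conditions unmet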; note: one replicate is shown; some compounds called inactive have numbers as strong as hits
Ecoli rRNA inh OD600 – also measured in Ecoli rRNA inh; calls as there; OD600 change, %; measured here: OD600 growth;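 optical density of the mix in the first replicate; 0 = DMSO median and -100 = no signal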
Ecoli rRNA inh RFP – also measured in Ecoli rRNA inh; calls as there; RFP signal change, %; measured here: RFP humanized mutant strains;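 first replicate; 0 = DMSO median and -100 = no signal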
Starred values were filed as active, the others as inactive; ? = inconclusive; nt = no result given. This is a subset; count on the stated rates, not on these rows.

SMILES	Calb FLC	T cruzi inh	RanGTP-Impb inh	Beta apoptosis	Vif TR-FRET	AF4-AF9 inh	Bfl-1 A1 inh	Ecoli rRNA inh	Ecoli rRNA inh OD600	Ecoli rRNA inh RFP
O=C1NC(=O)[C@]2(Cc3ccccc3N3CCN(c4ccccc4)CC32)C(=O)N1c1ccccc1 (stereo partly drawn)	18	10	-4.0	3	25%	nt	0.8	nt	nt	nt
CCOc1ccccc1N1C(=O)NC(=O)C(CCc2ccncc2)(CCc2ccncc2)C1=O	-11	5	?	2	-4%	nt	2.2	nt	nt	nt
N#CSCC(=O)N1c2ccccc2CCc2ccccc21	-3	17	-0.6	8	-9%	nt	0.7	nt	nt	nt
COC(=O)C(O)(c1ccc(N(C)S(=O)(=O)c2ccccc2)cc1)C(F)(F)F (stereo not drawn)	0	-3	-0.2	-1	12%	nt	0.5	nt	nt	nt
COc1ccc(C(C)=O)cc1CC(C(=O)c1ccc(F)cc1)N(C)C (stereo not drawn)	-11	-3	-0.8	-1	nt	0.9	-0.1	2	-8	1.1
CC(N)Cc1c[nH]c2ccc(Cl)cc12 (stereo not drawn)	-3	11	-0.9	5	1%	nt	-0.2	nt	nt	nt
COC(=O)c1c(C)n(Cc2ccc3c(c2)OCO3)c2ccc(O)cc12	-7	10	1.8	0	9%	nt	-0.3	nt	nt	nt
Cc1ccc(/C=C2\C(=O)NC(=O)N(CC3CCCO3)C2=O)s1 (stereo not drawn)	-13	-2	-1.5	2	16%	-6.7	0.7	-6	-12	-3.3
O=C(O)Cn1cc(C=C2C(=O)NC(=O)NC2=O)c2ccccc21	-3	5	1.0	-1	2%	-0.7	0.3	8	8	-9.2
Clc1ccc(N2CC2c2ccncc2)cc1 (stereo not drawn)	20	-14	1.6	nt	-2%	6.3	-0.2	10	14	-0.5
N#CC(c1ccccc1)N1CCOCC1 (stereo not drawn)	3	4	5.5	-6	-1%	-0.6	1.2	10	8	-2.6
CCCN(CCC)C1Cc2cc(OC)c(OC)cc2C1	nt	10	-0.7	-5	nt	-1.0	-0.6	4	13	-2.3
O=[N+]([O-])c1ccc2c(c1)C(c1ccccc1)=NCCN2	-10	15	2.3	0	-1%	3.8	0.5	-6	-4	-1.7
COc1ccc(CCNCc2cccc(C(F)(F)F)c2)cc1OC	-15	36	?	-1	-2%	2.4	-0.2	-3	-3	-6.6
CC1=CC(=C2C(=O)NC(=O)NC2=O)C=C(C(F)(F)F)N1Cc1ccccc1	-3	-28	6.8	4	nt	0.0	0.4	7	-1	-3.8
OC(CNC1CCCCCCC1)c1ccccc1 (stereo not drawn)	-14	5	-0.5	-2	nt	nt	-1.3	nt	nt	nt
COc1cc(/C=C2/C(=O)NC(=O)N(c3ccc(C)cc3)C2=O)cc(OC)c1OC	-2	-6	-2.1	1	2%	-3.2	0.1	22	10	3.4
O=C1NC(=O)N(Cc2ccccc2Cl)C(=O)/C1=C/c1cccs1	-8	-24	?	34	nt	0.2	0.2	6	12	11
CCC(=NCCN1CCOCC1)c1c(O)n(C2CCCCC2)c(=O)[nH]c1=O	-4	-6	0.2	-1	0%	4.9	-0.9	6	7	2.7
NC1C2CN3CCN(C2)CC1(c1ccccc1)C3 (stereo not drawn)	-11	-21	5.3	-11	-3%	15	0.6	10	5	-1.5
O=C1NC(=O)N(c2ccccc2)C(=O)/C1=C\c1ccc([N+](=O)[O-])s1	46	-9	3.2	5	13µM*	9.7	0.0	-8	0	17
COC[C@]12CN(C)C3C4[C@H](OC)[C@H]1C3([C@@H](OC)C[C@H]2O)[C@@H]1C[C@@]2(O)[C@H](OC(=O)c3ccccc3)[C@@H]1[C@]4(OC(C)=O)[C@@H](O)[C@@H]2OC	-3	-9	4.7	7	nt	nt	0.0	nt	nt	nt
CCOC(=O)c1c(-n2c(C)cc(C=C3C(=O)NC(=O)NC3=O)c2C)sc2c1CCCC2	21	-11	1.0	-5	-2%	nt	0.2	nt	nt	nt
Cc1ccc(-n2c(O)c(/C=N/N3CCCCC3c3cccnc3)c(=O)[nH]c2=S)cc1 (stereo not drawn)	-14	-29	0.6	8	-8%	-1.6	1.2	8	9	1.4

Random excerpt: seven records from the list
SMILES	Calb FLC	T cruzi inh	RanGTP-Impb inh	Beta apoptosis	Vif TR-FRET	AF4-AF9 inh	Bfl-1 A1 inh	Ecoli rRNA inh	Ecoli rRNA inh OD600	Ecoli rRNA inh RFP
O=C1NC(=O)N(Cc2ccccc2Cl)C(=O)/C1=C/c1cccs1	-8	-24	?	34	nt	0.2	0.2	6	12	11
CCOC(=O)c1c(-n2c(C)cc(C=C3C(=O)NC(=O)NC3=O)c2C)sc2c1CCCC2	21	-11	1.0	-5	-2%	nt	0.2	nt	nt	nt
O=C1NC(=O)N(c2ccccc2)C(=O)/C1=C\c1ccc([N+](=O)[O-])s1	46	-9	3.2	5	13µM*	9.7	0.0	-8	0	17
COc1ccc(CCNCc2cccc(C(F)(F)F)c2)cc1OC	-15	36	?	-1	-2%	2.4	-0.2	-3	-3	-6.6
CCC(=NCCN1CCOCC1)c1c(O)n(C2CCCCC2)c(=O)[nH]c1=O	-4	-6	0.2	-1	0%	4.9	-0.9	6	7	2.7
CC1=CC(=C2C(=O)NC(=O)NC2=O)C=C(C(F)(F)F)N1Cc1ccccc1	-3	-28	6.8	4	nt	0.0	0.4	7	-1	-3.8
OC(CNC1CCCCCCC1)c1ccccc1 (stereo not drawn)	-14	5	-0.5	-2	nt	nt	-1.3	nt	nt	nt

Following part.
SMILES	Calb FLC	T cruzi inh	RanGTP-Impb inh	Beta apoptosis	Vif TR-FRET	AF4-AF9 inh	Bfl-1 A1 inh	Ecoli rRNA inh	Ecoli rRNA inh OD600	Ecoli rRNA inh RFP
C[C@@H]1NCCc2cc(O)c(O)cc21	nt	nt	nt	0	nt	3.5	-0.6	-4	2	-2.9
O=C(c1ccccc1)c1cn(CC(=O)N2CCCc3ccccc32)c2ccccc12	13	29	0.7	3	4%	nt	0.2	nt	nt	nt
CC1CCCN(C(=O)c2ccc(N3CC4CC(C3)c3cccc(=O)n3C4)c([N+](=O)[O-])c2)C1 (stereo not drawn)	-3	4	1.4	1	nt	nt	0.5	nt	nt	nt
Cc1ccc(-c2nc3ccc(C)cn3c2CC(=O)N(C)C)cc1	4	-12	5.0	nt	nt	0.3	0.5	3	6	-2.0
Nc1ccc(Cl)cc1C(=O)c1ccccc1Cl	7	15	3.1	nt	1%	nt	0.9	nt	nt	nt
Cc1ccc(C2N(c3ccccn3)C(=O)C3CCCN32)o1 (stereo not drawn)	1	-9	8.4	-7	nt	1.0	-0.8	-1	-4	-2.2
COc1ccccc1CCNC1CCCC(C)C1 (stereo not drawn)	8	-10	-0.4	2	13%	nt	-0.4	nt	nt	nt
C=CCn1c(O)c(C(C)=NC(C)c2ccccc2)c(=O)[nH]c1=O (stereo not drawn)	-7	13	9.2	-10	5%	nt	0.4	-4	-5	2.2
CCN1C[C@]2(COC)CC[C@H](OC)[C@@]34C5C[C@H]6C(=O)C5[C@](O)(C[C@H]6OC)[C@@](O)(C(OC)C23)[C@@H]14 (stereo partly drawn)	1	-3	2.9	-8	nt	-1.4	0.2	nt	nt	nt
CCN1CC2(COC(=O)c3ccccc3N)CCC(OC)C34C5CC6C(OC)CC(O)(C5C6OC)C(O)(C(OC)C23)C14 (stereo not drawn)	nt	nt	nt	3	4%	1.5	1.4	nt	nt	nt
Nc1ccc(C2(c3ccc(N)cc3)CN3CCC2CC3)cc1	4	-8	49*	-9	8%	nt	0.8	nt	nt	nt
Cc1ccccc1C1=NCC(=S)Nc2ccc(Cl)cc21	nt	4	1.9	4	-11%	nt	0.6	nt	nt	nt
CN(C)c1ccc(/C=C/[N+](=O)[O-])cc1	3	-1	-3.9	-5	8%	-3.3	1.5	-18*	-2.2*	0.2*
CCn1c(=N)n(Cc2ccccc2F)c2ccccc21	-8	1	0.6	3	2%	nt	-0.5	nt	nt	nt
CC(C)C1(C)N=C(c2ncccc2C(=O)O)NC1=O (stereo not drawn)	-2	-13	3.1	-5	8%	5.8	-0.8	10	4	1.9
Cc1cc(C=C2C(=O)N(C)C(=O)N(C)C2=O)c(C)n1-c1ccccc1	-4	-7	-4.0	-5	-1%	nt	-0.2	nt	nt	nt
O=C1Nc2ccccc2/C1=C/c1cnc[nH]1	59	39	1.7	-2	3%	-19	0.2	-2	-2	-5.9
CC(Cc1ccccc1Sc1ccccc1O)N(C)C (stereo not drawn)	4	-3	1.7	-1	9%	nt	0.8	nt	nt	nt
CC#CP(=O)(OC)C(O)(CF)c1ccccc1 (stereo not drawn)	-2	-8	-1.4	-9	-2%	-2.3	0.4	17	14	3.7
O=C1COc2ccc(C(=O)COC(=O)Cc3ccccc3)cc2N1	6	-15	nt	-5	3%	-12	0.2	2	4	-2.3
Cc1cccc(-n2c(-c3ccco3)nc3ccccc3c2=O)c1C	-22	11	-1.4	6	2%	1.7	-0.3	-12	-12	-3.7
N#Cc1ccc(NC(=O)CN2CCCCCC2)cc1Cl	1	-4	-0.7	4	nt	2.1	1.4	-1	4	-0.2
COc1ccc(CN2C(=O)NC(=O)/C(=C/c3cc(OC)c(OC)c(OC)c3)C2=O)cc1	-6	-11	1.0	-4	3%	2.8	-0.3	14	1	0.0
CN1Cc2cccnc2N(C)Cc2cc(Cl)ccc21	1	-4	2.3	2	1%	2.9	1.0	-29	-32	-8.0
CCOC(=O)C1(c2ccccc2)CCN(Cc2cccc(C(=O)O)c2)CC1	2	-11	-1.5	-2	2%	0.1	0.3	-1	0	-3.6
CCCCCCn1c(O)c(C(C)=NC)c(=O)[nH]c1=O	5	-6	-6.0	nt	7%	nt	0.3	nt	nt	nt
Clc1ccc(CCNCc2ccncc2)c(Cl)c1	nt	25	3.4	-4	2%	-0.4	1.2	4	1	-0.1
CC1CCCCN1C(=O)Cn1cc(C=C2C(=O)N(C)C(=O)N(C)C2=O)c2ccccc21 (stereo not drawn)	-2	-2	0.8	-5	8%	-0.9	1.4	21	18	6.0
c1ccc(C(OCCN2CCNCC2)c2ccccc2)cc1	7	-6	1.9	0	28%	nt	0.6	nt	nt	nt
COC(=NC1CCCCC1)C(O)c1c[nH]c2ccccc12 (stereo not drawn)	-8	-9	?	-6	7%	nt	0.7	nt	nt	nt
Cc1cc(C)nc(NS(=O)(=O)c2ccc(N=Cc3c(O)n(C)c(=O)n(C)c3=O)cc2)n1	-14	-18	6.7	nt	23%	-3.7	-0.3	9	3	0.4
